Screens: PubChem BioAssay, National Center for Advancing Translational Sciences (NCATS)
Sfp inh = Sfp phosphopantetheinyl transferase inhibition; Biochemical Sfp PPTase activity, qHTS; Potency, µM, without a hit: max response, negative = inhibition, hits mostly inhibitors; actives 3.5% (n = 310,000); AID 1490; active = well fitted inhibition curve with a large enough effect; inconclusive = small, poorly fitted or top-dose-only effect, or another doubt; inactive = no such curve, though single readings can be large or run the other way;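 note: the enzyme is Sfp with the accession as filed and its product quenches rhodamine fluorescence; potency is the fitted concentration of half-maximal effect; 0% = enzyme reaction without inhibitor and -100% = no enzyme wells; top concentration of the series not given in the record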
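With Hepes-Na pH 7.6 buffer containing 10 mM MgCl2, Sfp (15 nM) modified BHQ-2-YbbR (12.5 uM) using rhodamine-CoA (5 uM). Two reads 30 minutes apart at 525/598 nm yielded each well's rate.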
D2 potentiator = positive allosteric modulators of human D2 dopamine receptor | potentiation, % (test concentration not listed) | AID 624464 | actives 0.23% (n = 360,000) | P14416 | DiscoveRx D2 beta-arrestin cells, luminescence, 90 min; 100% = 57 uM dopamine signal; active = potentiation of 50% or more; inconclusive = 30% to 50%; inactive = 30% or less;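 note: compound concentration not given in the record; tested on top of an EC20 dose of dopamine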
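PathHunter beta-arrestin assay in DiscoveRx D2 cells. Compounds were added with an EC20 of dopamine (50 nM final) for 90 min at 37 deg C. Luminescence was read 1 h after detection reagent, with 57 uM dopamine as the EC100 control.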
D2 ag = agonists of human D2 dopamine receptor (beta-arrestin). P14416. DiscoveRx PathHunter D2 beta-arrestin, luminescence, 90 min; 100% = 57 uM dopamine signal. activation, % (test concentration not listed). actives 0.084% (n = 360,000). AID 624465; in the data active = activation above about 40%; inconclusive = about 15% to 40%; inactive = below about 15%; note: compound concentration not given in the record; the text of the record calls up to 30% inactive
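DiscoveRx PathHunter D2 beta-arrestin cells (2,100/well) attached overnight, then compound-stimulated 90 min at 37 C in HBSS/10 mM HEPES/0.1% Tween-20 buffer; beta-galactosidase complementation read by luminescence after 1 h at ambient temperature. Dopamine 57 uM final (EC100) as control.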
PINK1 modulator = PINK1 expression modulation; PINK1 immunofluorescence, high-content cytometry, 24 h; AID 624263; Potency, µM (doses to about 76.6 µM), without a hit: top-dose activation (PINK1 increase), usual class: activators; actives 0.2% (n = 410,000); active = well fitted activation curve with a large enough effect; inconclusive = small, poorly fitted or top-dose-only effect; inactive = flat fitted curve, though single readings scatter; cell line not stated here;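 note: potency is the fitted concentration of half-maximal effect; % of control where 0% means no effect; nearly all actives have a fitted effect of over 65% in size; a mitochondrial uncoupler was the plate control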
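A stable cell line was treated with compounds at 5 concentrations for 24 hours, with CCCP as control. PINK1 levels and mitochondrial localization were measured by immunofluorescence with mitochondrial, cell and nuclear markers after fixation, read by laser-scanning cytometry.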
CtBP-E1A blk = blocks the CtBP interaction with E1A; AlphaScreen GST-E1A/His-CtBP binding, 1536-well; stronger effect = lower value; control for the full effect not named in the record; activity change, % (concentration not given with the values); actives 0.49% (n = 340,000); AID 651724; in the data active means activity change below about -65%; inconclusive means about -30% to -65%; inactive means above about -30%; note: % is set by controls: 0 for no effect and ±100 for the full control effect
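In 5 uL wells, 23 nL compound meets equimolar GST-E1A and His-CtBP (5X stock 125 nM each) for 2 h, 37 °C. Beads (5X, 50 ug/mL) then 1 h, 37 °C, dark.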
TRPV1 potentiator = enhances activation of the human vanilloid receptor TRPV1; TRPV1-expressing cells, Fluo-8 calcium influx, capsaicin EC20 potentiation; host cell line not named in the record; control for the full effect not named in the record; potentiation, % at 8.33 µM; actives 0.02% (n = 320,000); active means potentiation above 80%; inconclusive means 30% to 80%; inactive means below 30%; note: 0% is about no effect
Target sequence (Q8NER1 whole entry, looked up): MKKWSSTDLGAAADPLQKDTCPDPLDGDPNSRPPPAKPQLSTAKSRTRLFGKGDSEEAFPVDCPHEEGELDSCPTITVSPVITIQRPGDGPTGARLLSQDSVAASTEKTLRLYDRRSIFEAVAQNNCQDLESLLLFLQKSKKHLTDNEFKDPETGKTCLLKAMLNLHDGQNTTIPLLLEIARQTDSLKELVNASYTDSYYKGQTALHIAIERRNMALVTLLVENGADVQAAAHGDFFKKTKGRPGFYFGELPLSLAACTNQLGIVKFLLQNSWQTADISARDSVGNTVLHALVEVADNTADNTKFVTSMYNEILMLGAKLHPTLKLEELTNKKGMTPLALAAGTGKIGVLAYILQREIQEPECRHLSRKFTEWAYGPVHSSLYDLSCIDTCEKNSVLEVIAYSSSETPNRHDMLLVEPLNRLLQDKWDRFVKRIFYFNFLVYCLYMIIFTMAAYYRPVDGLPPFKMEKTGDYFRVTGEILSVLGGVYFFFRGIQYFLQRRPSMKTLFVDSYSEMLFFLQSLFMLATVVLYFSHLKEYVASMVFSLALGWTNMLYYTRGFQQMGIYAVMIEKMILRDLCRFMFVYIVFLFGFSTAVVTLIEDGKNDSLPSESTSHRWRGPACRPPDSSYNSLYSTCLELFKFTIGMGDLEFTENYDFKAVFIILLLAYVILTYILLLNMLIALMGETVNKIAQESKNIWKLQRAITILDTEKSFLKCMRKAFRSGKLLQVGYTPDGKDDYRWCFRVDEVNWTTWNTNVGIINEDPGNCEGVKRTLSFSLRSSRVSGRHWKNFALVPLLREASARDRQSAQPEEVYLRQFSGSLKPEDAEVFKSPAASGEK
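Cells expressing TRPV1 were dye-loaded with Fluo-8 and read kinetically: 10 s baseline, 3 min after compound (agonist portion), then 2 min after EC20 capsaicin (allosteric enhancer portion). Calcium-bound dye fluorescence at 480/520 nm.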
Six1-Eya2 blk = inhibitors of human Six1/Eya2 interaction; AlphaScreen GST-Six1/His-Eya2 binding, biochemical; stronger effect = lower value; control for the full effect not named in the record; Q15475+O00167; actives 0.56% (n = 360,000); activity change, % (no concentration beside the values); in the data active = activity change below about -65%; inconclusive = about -30% to -65%; inactive = above about -30%; note: % is set by controls: 0 for no effect and ±100 for the full control effect; compound concentration not given in the record
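AlphaScreen with GST-Six1 and His-Eya2 (5X mix: 250 nM and 500 nM), glutathione donor and nickel acceptor beads; buffer 50 mM Tris pH 8.0, 300 mM NaCl, 1 mM TCEP; 1 h at 37 C in the dark.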
An asterisk follows results filed as active; ? = inconclusive; / = not tested or not shown; & = joins results of further samples; [ ] = remark or other dose.

Fields: Sfp inh	D2 potentiator	D2 ag	PINK1 modulator	CtBP-E1A blk	TRPV1 potentiator	Six1-Eya2 blk
> COc1cc(/C=C/C(=O)OCC(=O)c2ccc[nH]2)cc(OC)c1OC
 : /	-0.9	3.7	14.8%	-1.7	/	-4.9
> COc1cccc2sc(N(CCCN(C)C)C(=O)CCS(=O)(=O)c3ccccc3)nc12
 : ?	-17.6	0.4	-1.4%	/	-2.5	10.6
> Cc1c(NS(=O)(=O)c2ccc(N(C)C3CCCCC3)c([N+](=O)[O-])c2)c(=O)n(-c2ccccc2)n1C
 : -6.0%	-13.4	-2.1	0.0%	10.2	-8.6	-19.1
> Cc1ccc(N(CC(=O)NC2CCCCC2)C(=O)CCCC(=O)Nc2ccccn2)cc1
 : 17.1%	-2.5	4.0	-1.5%	6.0	14.4	-1.1
> COC(=O)c1cc(NC(=O)CC2Oc3ccccc3NC2=O)cc(C(=O)OC)c1 (stereo not given)
 : -6.0%	1.6	-0.9	0.0%	0.8	7.5	-8.4
> CCCC(C)C(=O)Nc1ccc(C(N)=O)cc1 (stereo not given)
 : 10.8%	-3.9	-1.3	-7.3%[38.3 µM]	4.1	-5.7	-1.6
> O=C(CN1CCCCC1)NNC(=O)c1ccc([N+](=O)[O-])cc1
 : -3.3%	0.3	0.2	1.5%	/	-9.1	-2.0
> Cc1cccc(-n2c(C)cc(/C=N/O)c2C)c1
 : -10.7%	-12.9	-1.7	0.7%	-15.1	-0.9	-8.9
> Cc1ccccc1SCC(=O)NC1CCOC1=O (stereo not given)
 : -2.6%	-1.3	-1.0	-0.2%	-0.1	-2.1	-3.1
> [N-]=[N+]=NC1c2ccccc2C(=O)N1Cc1ccccc1 (stereo not given)
 : 13.9%	6.0	9.4	8.5%	-0.1	-3.8	2.4
> O=C(CN1CCN(Cc2ccccc2)CC1)Nc1cccc(S(=O)(=O)N2CCCCCC2)c1
 : 5.8%	-10.1	1.7	-0.7%	-2.4	-2.3	-4.9
> Cc1cccc(C)c1NC(=O)CSc1nc(N2CCOCC2)nc(N2CCOCC2)n1
 : -1.1%	12.7	1.9	11.3%	7.0	-16.9	6.5
> C=CCNC(=S)Nc1sc2c(c1C(=O)OCC)CCN(C(=O)OCC)C2
 : ?	-17.2	-0.6	-0.1%	-3.8	-12.1	0.9
> O=C1CC(=O)C(n2cncn2)C(c2ccc(Cl)cc2Cl)C1 (stereo not given)
 : 19.1%	14.6	0.3	6.7%[38.3 µM]	0.4	-9.4	-1.6
> CC(C)NC(=O)c1ccccc1NS(=O)(=O)c1ccc(Br)s1
 : 22.9%	7.2	-0.2	?	9.3	5.2	5.0
> CCOC(=O)[C@H]1[C@H]2COc3cc(OC)ccc3[C@@H]2N2C(=O)N(c3cccc(Cl)c3)C(=O)[C@@]12C
 : 6.5%	-12.0	-4.9	1.1%	-1.7	13.4	-7.9
> C=CCn1cc(C(=O)OC)c(=O)c2cc(S(=O)(=O)N3CCCCCC3)ccc21
 : -2.7%	-7.1	0.0	-1.1%	2.1	6.4	-3.3
> CCO[C@H]1OC(C(=O)NC2CC2)=C[C@@H](C)[C@@H]1CCCO
 : 17.7%	-6.6	0.9	-1.4%	-19.3	3.3	8.6
> CS(=O)(=O)Nc1ccc(-c2ccc(/C=C3\SC(N)=NC3=O)o2)cc1
 : -25.5%	-5.2	-5.3	28.2%	-67.7*	-12.0	?
> C[C@H](NC(=O)OC(C)(C)C)c1nnc(SCC(=O)Nc2ccc(Br)cc2)o1
 : 20.0%	-15.5	0.9	3.0%	-8.0	22.9	2.2
> O=[N+]([O-])c1ccc2nc(SCc3cn4ccccc4n3)[nH]c2c1
 : 11.5%	-20.0	-1.3	8.0%	5.3	8.2	1.9
> COc1ccc(N2CC(O)=C(c3nc(-c4ccc(Cl)cc4)cs3)C2=N)cc1
 : 5.4%	-2.1	-3.9	13.2%	8.7	0.7	2.7
> CN(C(=O)COC(=O)Cn1cnc2ccccc21)C1CCCCC1
 : /	-6.3	3.7	-0.1%	-0.1	/	-1.6
> COc1ccc2c(c1)NC1(O)c3ccccc3C(=O)C21O (stereo not given)
 : 10.9%	0.5	-1.6	/	-6.0	-0.6	-13.2
> O=C(O)c1cnc(-c2ccccc2)nc1Oc1ccc(Cl)cc1
 : 21.1%	-4.4	-0.3	-0.5%	24.4	2.5	5.3
> Cc1cccc(-c2nc3c(c(SCC(=O)N4CCOCC4)n2)CCCC3)c1
 : 10.9%	-10.1	-3.1	-0.6%	6.1	-18.1	11.2
> COc1ccc(Br)cc1-c1noc(-c2ccncc2)n1
 : -3.1%	16.3	-0.6	0.5%	-4.7	5.4	12.1
> COc1ccc(-c2nn(-c3ccccc3)cc2/C=C/C(=O)N2CCOCC2)cc1OC
 : -2.0%	1.0	-0.6	3.1%	2.6	-15.0	-2.3
> O=[N+]([O-])c1ccc(S(=O)(=O)c2ccccc2)nc1
 : 50.1µM*	-65.0	48.3*	1.5%	/	15.2	-10.0
> N#CC1(C(N)=O)OC12CCS(=O)(=O)c1ccccc12 (stereo not given)
 : /	-1.6	-0.1	1.4%	5.3	/	22.2
> Cc1cccc(-c2nnc(NC(=O)c3cccs3)s2)c1
 : 12.2%	0.7	-2.0	0.9%	0.8	-3.3	2.5
> Cc1ccccc1N1C(=O)c2ccccc2C1O (stereo not given)
 : 11.4%	-6.0	-2.4	3.6%	2.5	-1.2	7.1
> COC(=O)C1CCN(C(=O)COC(=O)c2ccc(OC)c(S(=O)(=O)N3CCCc4ccccc43)c2)CC1
 : 11.7%	-12.1	8.9	-1.3%	/	5.9	-24.4
> O=C(CNCc1ccccc1)NC1C2CC3CC(C2)CC1C3 (stereo not given)
 : ?	-5.9	-1.0	-0.6%	-4.9	6.4	-1.0
> COC(=O)[C@]12CCCCC=C1N(Cc1ccccc1)C(=O)[C@H](CC(=O)NCCC(C)C)C2
 : /	/	/	2.7%	-4.1	/	10.3
> CCN(CC)c1ccc(C(=C2C=CC(=[N+](CC)CC)C=C2)c2ccccc2)cc1
 : ?	-38.2	-11.4	-1.2%	-7.7	/	?
> Cc1cc(C)c(C)c(OCC(=O)NCc2nc(-c3ccccc3)no2)c1
 : 8.3%	-22.9	-2.4	0.2%	5.7	12.1	10.7
> CCc1cc2c(=O)n(-c3ccccc3)c(SCC(=O)O)nc2s1
 : 3.3%	2.2	2.0	1.5%	1.7	-3.7	-6.1
> O=C(O)c1ccccc1Nc1ccc2nonc2c1[N+](=O)[O-]
 : 3.0%	-6.8	-7.7	0.5%	0.0	17.0	2.0
> N=c1c2c(-c3ccccc3)c(-c3ccccc3)n(Cc3ccco3)c2ncn1CCCN1CCOCC1
 : 8.6%	-6.0	-2.1	-1.9%	0.1	10.1	-8.5
> CC(/C=N/NC(=O)c1cc(-c2ccccc2)nc2ccccc12)=C\c1ccco1
 : -0.9%	-25.2	0.9	2.8%	-6.4	3.1	-16.7
> CCn1c(Cc2ccccc2)nnc1SCC(=O)Nc1ccc(N)cc1
 : 17.3%	9.0	-0.7	/	12.4	10.5	3.2
> COc1ccc(-c2nc3ccc(C)cn3c2NCc2ccccc2)cc1SC1CCCCC1
 : /	-4.2	1.0	3.2%	-12.8	?	-4.5
> CCc1ccc(NC(=O)C2CCCN2S(=O)(=O)c2ccc3c(c2)n(C)c(=O)c(=O)n3C)cc1 (stereo not given)
 : 31.4%[activator]	-8.5	-3.6	1.1%&2.2%	/	3.1	-2.6
> CC(=O)N/C(=C/c1ccccc1)C(=O)NCCO
 : 26.1%	0.5	-2.7	-3.0%	-14.1	-1.2	3.9
> Cc1c(N)c(=O)n(-c2ccccc2)n1C
 : -13.5%&-2.7%	-20.5	-3.0	-0.7%	-22.6	-2.1	5.8
> O=C(CCSCCC(=O)NCc1ccco1)NCc1ccco1
 : 15.8µM*	-11.9	-1.1	1.2%	0.0	-12.4	13.6
> CN(C(=O)COC(=O)Cc1c(Cl)cccc1Cl)c1c(N)n(Cc2ccccc2)c(=O)[nH]c1=O
 : /	-14.8	-2.5	1.8%	9.3	13.7	6.5
> COc1ccccc1NC(=O)N1CCN(c2ccccc2F)CC1
 : 6.0%	-12.3	-1.1	-0.7%	0.2	28.9	6.8
> CCC(OC(=O)c1cccs1)C(=O)NCc1ccc(C)cc1 (stereo not given)
 : 2.8%	1.7	-1.3	1.4%	4.2	-7.9	0.4
> O=C(NNC(=O)c1ccncc1)Nc1ccc(Br)cc1
 : /	-11.6	-3.0	0.1%	5.9	/	-0.4
> COc1ccc(N2CC(O)=C(c3nc4ccccc4s3)C2=N)cc1
 : 15.3%	-5.7	-0.5	11.2µM*	0.0	-13.8	-0.3
> COc1cc(F)ccc1-c1cc(C(=O)NCc2ccc(C(F)(F)F)cc2)[nH]n1
 : /	-12.5	0.8	4.9%	-1.8	/	6.5
> COc1ccc(N2C(=O)CC(N3CCN(c4ccccc4OC)CC3)C2=O)cc1 (stereo not given)
 : 10.2%	-1.7	-3.8	1.1%	15.5	2.1	-0.1
> Cc1ccc(OCC(=O)Nc2ccc(C(=O)Nc3ccccc3C(=O)O)cc2)cc1C
 : /	-3.5	-0.8	-1.2%	-8.0	/	-13.5
> CC(C)C(=O)NC(c1ccco1)c1c(O)ccc2ccccc12 (stereo not given)
 : -2.4%	-5.8	-4.9	2.0%[38.3 µM]	-10.2	4.2	-6.7
> O=C(NC(=O)c1c(F)cccc1F)Nc1ccccc1SC(F)F
 : 6.7%	-1.0	-0.7	3.2%	5.6	7.6	-0.7
> CC(C)Oc1ccc(C(=O)NC2CCN(Cc3ccccc3)CC2)cc1
 : 6.3%	-26.3	-3.2	2.3%	6.5	19.0	9.4
> CNC(=O)COc1ncnc2sccc12
 : 16.9%	-8.4	0.7	-0.7%	3.0	-2.5	12.4
> O=C(NCCC1=CCCCC1)C1CCN(S(=O)(=O)c2cnc[nH]2)CC1
 : 25.1%	9.2	-3.7	-0.5%	7.0	3.2	5.0
> CCc1nnc(NC(=O)C2CCN(c3nc(C)cc(C)n3)CC2)s1
 : 10.4%	0.2	-3.2	-0.2%	5.3	-3.7	7.4

Random draw from the library. About 3.7% of those tested had a hit in this group.
